Screens (PubChem)
Cruzain noTriton: blocks cruzain activity in detergent-free assay | P25779 | 2.3% of 200,000 active | AID 1476 | purified cruzain, Z-FR-AMC fluorescence, no detergent | Potency, µM, without a hit: max response, negative = inhibition, usual class: inhibitors;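 further: plate controls were enzyme without inhibitor for no effect and buffer without enzyme for full effect; nearly all actives have a fitted effect of over 40% in size; top concentration of the series not given in the record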
Target sequence (P25779 123-467 limits assumed): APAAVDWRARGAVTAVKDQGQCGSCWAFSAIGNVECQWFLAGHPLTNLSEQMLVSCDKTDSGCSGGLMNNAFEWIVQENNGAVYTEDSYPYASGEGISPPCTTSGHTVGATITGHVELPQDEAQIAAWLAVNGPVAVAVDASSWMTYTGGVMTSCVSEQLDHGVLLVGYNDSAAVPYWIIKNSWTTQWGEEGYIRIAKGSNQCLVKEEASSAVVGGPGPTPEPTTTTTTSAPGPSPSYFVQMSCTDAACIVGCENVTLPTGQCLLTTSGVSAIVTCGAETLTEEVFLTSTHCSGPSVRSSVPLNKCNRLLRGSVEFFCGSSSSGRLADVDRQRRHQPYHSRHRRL
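Detergent-free condition (0.00005% Triton X-100) in acetate buffer pH 5.5 with DTT. 1.5 nM enzyme and compound were pre-mixed 15 min, then 2 uM Z-FR-AMC substrate added; reaction progress from fluorescence change between first and third reads (60 s).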
StopGo reporter: FMDV 2A StopGo reporter, luciferase signal; 1.2% of 410,000 active; AID 1159524; Potency, µM (doses to about 57.9 µM), for inactives: at the highest dose signal change, negative = less light; human cells with a luciferase reporter of 2A StopGo recoding; control for the full effect not named in the record; active = well fitted falling curve with a large enough effect; inconclusive = small, poorly fitted or top-dose-only effect; inactive = no such curve, though single readings can be large or run the other way; tested in HEK293T cells; further: on the % scale 0 is the no-effect control and ±100 the full control effect; nearly all actives have a fitted effect of over 45% in size; luciferase light after 4 h
Marburg entry inh: inhibitors of Marburg virus binding or cell entry; Marburg virus pseudotyped entry inhibition, cell reporter; control for the full effect not named in the record; about a third of the inactives were read at about 46 µM; 1.8% of 300,000 active; Potency, µM (series often up to 37.8 µM), for inactives: at the top dose activity change, negative = inhibition, hits mostly inhibitors; active = well fitted inhibition curve with a large enough effect; inconclusive = small, poorly fitted or top-dose-only effect, or effect the other way; inactive = flat fitted curve, though single readings scatter; tested in HEK293 cells; about a fifth of its hits are not listed in these tables; further: on the % scale 0 is the no-effect control and ±100 the full control effect; luciferase read-out
RE007 growth inh: less growth of the S. pombe RE007 Vpr strain; 0.21% of 360,000 active; S. pombe RE007 Vpr strain, BacTiter-Glo ATP luminescence, 24 h; control for the full effect not named in the record; Potency, µM (highest dose often 92.2 µM), for inactives: at the highest dose activity change, negative = less growth; active = well fitted falling curve with a large enough effect; inconclusive = small, poorly fitted or top-dose-only effect; inactive = no such curve, though single readings can be large or run the other way;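 further: on the % scale 0 is the no-effect control and ±100 the full control effect; nearly all actives have a fitted effect of over 50% in size; the assay follows cell death caused by Vpr and the record does not say whether a fall means rescue or toxicity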
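Fission yeast RE007 carrying one integrated HIV-1 vpr copy, seeded at OD 0.01 in PMG+AL medium with 23 nL pinned compound. Grown 24 h at 30 degrees; viability read by BacTiter-Glo luminescence after 5 min.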
Cruzain inh Det: blocks cruzain activity in presence of Triton detergent; purified cruzain, Z-FR-AMC fluorescence, 0.01% Triton; Potency, µM, for the others: max response, negative = inhibition, most hits filed as inhibitors; 0.43% of 200,000 active;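 further: plate controls were neutral wells for no effect and buffer without enzyme for full effect; nearly all actives have a fitted effect of over 40% in size; top concentration of the series not given in the record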
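Read-out: AMC fluorescence (360 nm excitation, 450 nm emission), four reads over 2 min, first-to-third difference used. Conditions: cruzain 1.5 nM, Z-FR-AMC 2 uM, pH 5.5 acetate, 5 mM DTT, 0.01% Triton X-100.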
Lassa entry inh: inhibitors of Lassa virus binding or cell entry; 1.2% of 300,000 active; Lassa virus pseudotype entry inhibition, cell reporter; control for the full effect not named in the record; AID 540256; Potency, µM (doses to about 37.9 µM), without a hit: at the top dose activity change, negative = inhibition, usual class: inhibitors; active means well fitted inhibition curve with a large enough effect; inconclusive means small, poorly fitted or top-dose-only effect, or effect the other way; inactive means flat fitted curve, though single readings scatter; tested in HEK293 cells; further: on the % scale 0 is the no-effect control and ±100 the full control effect; nearly all actives have a fitted effect of over 50% in size; luciferase read-out
NS1 function inh: influenza NS1 inhibition; S. cerevisiae slowed by influenza A NS1, growth recovery by OD600; Potency, µM (doses to about 46.1 µM), for the others: at the highest dose activity, positive = more growth; 0.4% of 270,000 active; active means well fitted rising curve with a large enough effect; inconclusive means small, poorly fitted or top-dose-only effect; inactive means no such curve, though single readings can be large or run the other way; further: nearly all actives have a fitted effect of over 50% in size
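Compounds were scored for reversing the slow growth caused by influenza A NS1 in S. cerevisiae, measured by optical density at 600 nm. Assay medium contained 2% galactose at pH 6.0; NS1-free yeast of the same strain were the positive control.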
SARS PLP yeast: SARS-CoV PLP inhibition in yeast; S. cerevisiae expressing SARS-CoV PLpro, growth rescue; control for the full effect not named in the record; Potency, µM (doses to about 32.9 µM), inactives show top-dose activity, positive = growth rescue; 0.19% of 330,000 active; AID 485353; active means well fitted rising curve with a large enough effect; inconclusive means small, poorly fitted or top-dose-only effect; inactive means no such curve, though single readings can be large or run the other way; further: 0% is about no effect; nearly all actives have a fitted effect of over 55% in size; growth read by luminescence after 48 h
Numbers without * were called inactive; ? = inconclusive; . = no result given; & = joins results of further samples; [ ] = another dose, or the depositor's remark. Unless noted, the call rests on the fitted dose curve; in most records, active means well fitted curve in the direction sought with a large enough effect; inconclusive means small, poorly fitted or top-dose-only effect, or another doubt; inactive means no such curve, though single readings can be large; an effect the other way counts as inactive or inconclusive. Potency means the concentration at half of the fitted maximal effect.

SMILES,Cruzain noTriton,StopGo reporter,Marburg entry inh,RE007 growth inh,Cruzain inh Det,Lassa entry inh,NS1 function inh,SARS PLP yeast
COc1ccc2[nH]c(=O)c(CN(C(=O)c3cccc(Cl)c3)c3ccccc3C)cc2c1,-21.5%,1.8%,-5.1%[46.1 µM],.,-0.3%,20.9%[46.1 µM],.,.
COc1ccc(OC)c(C2C(C(C)=O)=C(O)C(=O)N2CCN2CCOCC2)c1 (stereo unspecified),0.4%,15.2%,?,4.4%,-0.3%,13.7%,-3.8%,-2.0%
COc1ccc(C(=O)C[n+]2ccc(C)cc2)cc1,8.9%,-10.9%,-13.7%,1.5%,1.4%,5.6%,-0.3%,1.4%
CCc1nnc(NC(=O)CCC(=O)Nc2ccccc2)s1,2.2%,6.1%,24.8%[46.1 µM],0.9%,7.1%,-1.8%,-6.0%,0.6%
CCc1cc(CNC(=O)C2CCC(=O)N(CCc3ccc(OC)cc3)C2)on1 (stereo unspecified),.,-16.1%,3.7%,-10.2%,.,4.9%,2.3%,-2.0%
O=C(CNC(=O)c1ccccc1)Oc1ccc([N+](=O)[O-])cc1,.,-22.8%,11.1%[46.1 µM],-5.6%,.,-5.7%,10.0%,1.7%
CC(=O)N1CCc2cc(C(=O)CN3CCN(c4ccccn4)CC3)ccc21,.,-8.6%,-0.4%[46.1 µM],-14.5%,.,?,4.1%,-1.3%
COCCN(CC(=O)NCc1ccc2c(c1)OCO2)C(=O)CCC(=O)Nc1nccs1,5.1%,-7.0%,-6.4%[46.1 µM],19.6%,-1.4%,7.9%,7.0%,0.0%
Cc1cccc(N2C(=O)C(O)=C(C(=O)c3cccs3)C2c2cccc(Oc3ccccc3)c2)n1 (stereo unspecified),.,11.3%,12.2%[46.1 µM],-7.0%,.,-1.7%[46.1 µM],4.1%,-3.6%
CCc1ccc(NC(=O)Cn2nc(C(F)(F)F)c3c2CCCC3)cc1,-3.4%,-21.6%,-10.5%[46.1 µM],.,-8.0%,-2.6%[46.1 µM],.,.
CSc1nc(C)c(C(=O)Nc2ccccc2)c(-c2ccco2)c1C#N,.,-19.2%,.,-5.6%,.,.,1.0%,-1.2%
C#CC1(O)CCC2C3CCC4=CC(=O)CCC4=C3C=CC21C (stereo unspecified),.,-10.1%,-0.2%,3.6%,.,-9.2%[46.1 µM],.,.
CCN1CCN(C(=O)Cn2nc(-c3ccc(Cl)cc3)ccc2=O)CC1,.,2.7%,8.3%,-7.4%,.,0.1%,.,9.0%
COc1ccc(CNC(=O)c2cc(C(=O)C3CC3)c[nH]2)cc1,.,-14.7%,22.9%[46.1 µM],-12.2%,.,?,5.0%,3.6%
COc1cc2nc(=S)n3[nH]c(CCn4c(C)nc5ccccc54)nc3c2cc1OC,-14.0%,-16.8%,13.9%,-12.1%,-10.2%,4.8%,-1.6%,2.3%
O=C(/C=C/c1cc([N+](=O)[O-])ccc1OC(F)F)NCc1ccc(Cl)cc1,0.0%,0.0%,-0.4%,-21.6%,-5.9%,-8.7%,-2.5%,-1.6%
O=C(NCCc1csc(-c2ccc(C(F)(F)F)cc2)n1)C(=O)Nc1ccc(F)c(Cl)c1,-2.7%,-17.8%,.,.,0.1%,12.1%[46.1 µM],.,.
Cc1ccc(-c2nnc(Nc3ccc(S(N)(=O)=O)cc3)c3ccccc23)cc1S(=O)(=O)N1CCOCC1,3.2%,-23.2%,.,.,-3.4%,-23.7%[46.1 µM],.,.
Cc1cc(OCC(=O)Nc2ccc(N3CCN(C(=O)c4ccco4)CC3)cc2)cc(C)c1Cl,0.8%,6.31µM*,-40.7%,-3.5%,-0.3%,-35.4%,-3.3%,1.9%
O=C(c1cc(C2CC2)nn1-c1ccccc1)N1CCN(c2ncc(C(F)(F)F)cc2Cl)CC1,.,-24.2%,-20.8%,-0.5%,.,16.6%,.,0.8%
O=C(NCc1ccc2c(c1)OCO2)c1cc2n(n1)C(C(F)(F)F)CC(c1ccc3c(c1)OCO3)N2 (stereo unspecified),?,-18.3%,-3.8%&-12.2%,2.7%,-2.8%,?,-28.5%,-2.0%
COc1cc(NC(=O)c2ccc3c(c2)OCO3)ccc1NC(=O)c1cccs1,.,11.1%,-2.1%[46.1 µM],14.8%,.,11.6%,5.2%,0.8%
Cc1ccc(C(=O)CC(C(=O)O)n2cccn2)cc1 (stereo unspecified),7.7%,1.3%,-2.7%,-7.4%,-2.3%,12.6%,3.8%,2.6%
CN(C)c1ccc(/C=C(\NC(=O)c2ccccc2)C(=O)NCCCN2CCOCC2)cc1,.,7.2%,?,4.8%,.,-1.4%,6.3%,1.4%
O=C1Cc2cc(S(=O)(=O)N3CCCCC3)cc3c2N1CCC3,-11.3%,4.6%,.,.,0.6%,-5.4%[46.1 µM],.,.
COC(=O)C(C)NC(=O)c1cn(-c2ccccc2OC)c(=O)c2ccccc12 (stereo unspecified),.,-3.7%,.,9.5%,.,.,4.1%,-0.4%
Cc1cccc(OCC(=O)O/N=C(\N)c2ccccn2)c1C,2.3%,70.7%[activator],22.8%,-5.5%,-6.5%,?,-14.8%,0.4%
Cc1ccc(S(=O)(=O)N(C)/C(=N/S(=O)(=O)c2ccccc2)c2ccccc2)cc1,-2.1%,14.0%,-21.1%,-11.7%,3.7%,4.3%,-16.2%,-5.7%
CCOc1ccc(NC(=O)CC2C(=O)N(c3ccccc3)C(=O)N2Cc2ccc3c(c2)OCO3)cc1 (stereo unspecified),15.4%,2.7%,-11.9%[46.1 µM],.,-0.1%,-15.9%[46.1 µM],.,.
CCc1ccc(NC(=O)CSc2nc3c(oc4ccccc43)c(=O)n2-c2cccc(C)c2)cc1,?,-29.2%,?,.,-0.4%,-3.1%[46.1 µM],.,.
CN1CCN(c2ccc(Cl)cc2NC(=O)c2cccc(S(=O)(=O)N(C)C)c2)CC1,-5.9%,.,?,-2.9%,0.5%,0.2%,4.4%,-3.9%
CCc1ccc(C(=O)CC2(O)C(=O)N(CN3CCOCC3)c3ccccc32)cc1 (stereo unspecified),9.9%,27.2%,?,10.1%,2.9%,4.4%,?,2.1%
Nc1nc(Nc2ccc(Cl)cc2)n[nH]1,-7.6%,-2.5%,0.0%,10.6%,-1.8%,2.9%,-3.3%,0.4%
C=CCOc1cc(C)nc(-c2ccccc2O)n1,-10.9%,6.6%,-0.1%[46.1 µM],-17.7%,-5.1%,3.1%,-8.4%,0.9%
O=S(=O)(/C=C/c1ccccc1)N1CCN(c2cccc(Cl)c2)CC1,-5.2%,-6.9%,5.0%,-2.3%,-1.7%,1.7%,-54.2%,-1.0%
CCOC(=O)C1=CCN(Cc2ccccc2)CC1,.,3.0%,-0.1%[46.1 µM],-4.2%,.,-1.2%[46.1 µM],-4.9%,-0.3%
COc1ccc(C2CC(c3ccccc3)=NN2S(=O)(=O)c2ccccc2)c(OC)c1 (stereo unspecified),-26.2%,-4.7%,-2.7%,1.8%,-4.6%,8.5%,7.1%,10.3%
CCCC1S/C(=N/N=C/c2cccs2)NC1=O (stereo unspecified),?,-10.8%,?,-13.8%,-4.7%,-6.0%,-8.4%,-7.3%
COc1cc(OC)c(-c2cc(C(=O)NCc3ccc(F)cc3)c3c(-c4ccccc4)[nH]nc3n2)cc1OC,?,-9.2%,.,.,-4.7%,?,.,.
O=c1c(-c2n[nH]c(=S)o2)cccn1Cc1ccccc1,.,3.8%,15.1%[46.1 µM],-4.8%,.,-0.2%,8.3%,2.3%
CC(=O)c1ccccc1NC(=O)CCCNC(=O)c1ccc(Cl)cc1,.,-0.6%,3.6%[46.1 µM],1.3%,.,-24.5%[46.1 µM],10.1%,3.8%
CCCNC(=O)NC(=O)COC(=O)c1oc2ccc(OCC)cc2c1C,?,1.9%,?,6.9%,0.9%,-3.6%,2.0%,1.0%
CCCOC(=O)Nc1ccc([As](=O)(O)O)cc1NC(=O)OCCC,.,-8.0%,9.0%[46.1 µM],-20.1%,.,20.9%[46.1 µM],-5.0%,0.9%
O=C(O)C1CCN(C(=O)COc2ccc3c4c(c(=O)oc3c2)CCC4)CC1,-21.1%,-20.8%,5.7%,21.6%,-6.0%,14.6%,9.4%,5.6%
Cn1c(=O)[nH]c2ccc([N+](=O)[O-])nc21,-0.8%,6.1%,-28.5%,-3.0%,-6.8%,1.7%,-1.5%,6.5%
CN(C)CC(O)COc1ccc(C(C)(C)c2ccc(OCC(O)CN(C)C)cc2)cc1 (stereo unspecified),-3.3%,-15.5%,?,-6.8%,2.4%,?,-10.0%,-0.9%
CC1CN(C(=O)c2ccc3c(c2)OCO3)CC(C)O1 (stereo unspecified),1.0%,1.0%,1.9%,1.3%,3.0%,3.5%,-49.3%,0.7%
CCOC(=O)CSc1nc2ccccc2c(=O)n1Cc1ccco1,1.3%,.,-2.4%,7.8%,-4.7%,-14.5%,-18.3%,-0.7%
COc1ccc(C(=O)Nc2ccc(-n3nncc3-c3ccccc3)cc2)cc1OC,25.3%,0.0%,.,.,1.0%,?,.,.
Cc1cc([N+](=O)[O-])nn1CC(=O)NCc1ccco1,0.0%,4.4%,-7.8%,4.3%,-2.4%,-6.0%,12.0%,-18.7%
O=c1oc2cc(O)ccc2cc1-c1nc2c(s1)CCc1ccccc1-2,?,?,14.0%,0.6%,-3.7%,?,18.5%,0.5%
COc1ccc(C(=O)Nc2cc(C)nc3ccccc23)cc1OC,3.4%,-17.8%,-17.6%,-9.7%,-0.1%,-6.8%,-6.6%,3.9%
CN(C)/C=C1\C(=O)NN=C1C(F)(F)F,.,-12.6%,-21.5%[46.1 µM],2.0%,.,6.2%,.,3.5%
O=C(O)C1CSC(c2ccc(O)c([N+](=O)[O-])c2)N1 (stereo unspecified),.,28.3%,?,0.7%,.,9.8%,0.2%,0.1%

Compounds were not picked by outcome, and some 4.7% of all compounds hit somewhere here.
